From PubChem
Choline anaer gr – choline-fed anaerobic bacterial growth inhibition; calls only; Gram-negative bacterium anaerobic choline minimal medium, absorbance growth; stronger effect = lower value; many inactives read as strong as hits in the columns shown; 55,000 compounds, 0.2% hits;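 active = growth z-score on choline under -2 at 7 or 20 h with little or no fall on glycerol, limits in tiers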;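 note: stock transfer was 300 nL into about 50 µL; the organism is E. coli; final concentration not given here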
Choline anaer gr early – second read-out of Choline anaer gr, no call of its own (marks repeat the call); z-score; measured here: choline growth z-score, timepoint 1;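 score of optical density at 7 h as mean of two plates; lower means less growth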
The depositor's hits bear a star; i = inactive; & = joins results of further samples. Only part of the results is shown; the hit share may differ from the screen's.

Value order: Choline anaer gr | Choline anaer gr early
CN1C[C@@H](NS(=O)(=O)N(C)C)C[C@@H]2c3cccc4c3c(cn4C)C[C@H]21
    i | 1.1
Cc1[nH]c2c(C)cccc2c1C(O)CN1CCC(C)CC1 (stereo not drawn)
    i | 1.2
CC(=O)[C@H]1CC[C@H]2[C@@H]3CC[C@H]4C[C@](C)(O)CC[C@]4(C)[C@H]3CC[C@]12C
    i | 0.76
CC(C)(O)C(Cl)(Cl)Cl
    i | 0.35
C[C@H](N)Cc1cccc(C(F)(F)F)c1
    i | 0.23
C[N+](C)(C)CC#CCN1CCCC1=O
    i | 0.1
Cc1nc2nc(-c3ccc(C(C)(C)C)cc3)nn2c(C)c1CC(=O)N1CCN(C)CC1
    i | -0.16
Cc1cccc2sc(NC(=O)c3cccn(Cc4ccc(Br)cc4)c3=O)nc12
    i | -0.2
O=C(CCCN1CCC2(CC1)C(=O)N(Cc1cccc(F)c1)CN2c1ccccc1)c1ccc(F)cc1
    i | -1.5
NC1CC1c1ccccc1 (stereo not drawn)
    i | -0.19&0.29
Cc1cc2c(C(C)C)c(O)c(O)c(C=O)c2c(O)c1-c1c(C)cc2c(C(C)C)c(O)c(O)c(C=O)c2c1O
    i | 0.2&0.48&0.24&0.26
Cn1c(=O)n(C)c2cc(CNCCc3c[nH]c4ccccc34)ccc21
    i | -1.2
CNC(=O)Oc1ccccc1OC(C)C
    i | 0.85
OC(c1ccccc1)(c1ccccc1)C1CCNCC1
    i | 0.33&0.36
CN1CCCc2cc(C(=O)N3CCC4(CC3)OCCO4)sc21
    i | -0.03
CC(C)(C)OC(=O)c1ncn2c1[C@@H]1CCCN1C(=O)c1c(Br)cccc1-2
    i | 0.02
C[C@]12CC(=CO)C(=O)CC1CCC1C2CC[C@@]2(C)C1CC[C@]2(C)O (stereo partly drawn)
    i | 0.59
Clc1cccc(-c2cccc3c2CCNC3)c1
    i | -0.95
O=C(Nc1nc2ccccc2s1)c1cccn(Cc2c(F)cccc2Cl)c1=O
    i | 0.79
O=C(NCc1cccnc1)c1cc2cccnc2n(Cc2ccccc2)c1=O
    i | 0.6
Cc1ccc(-n2nc(C)c3c2NC(=O)CSC3c2ccsc2)cc1Cl (stereo not drawn)
    i | 0.11
O=C(Nc1nc2ccccc2s1)c1cccn(Cc2ccc(Br)cc2)c1=O
    i | 0.07
COc1ccc2c(c1)C1(CCN(S(=O)(=O)c3ccc4c(c3)OCCO4)C1)C(=O)N2 (stereo not drawn)
    i | 0.84
CCCCCCCCCCCCCC(=O)O[C@@H]1[C@@H](C)[C@@]2(O)[C@@H](C=C(CO)C[C@]3(O)C(=O)C(C)=C[C@@H]23)[C@@H]2C(C)(C)[C@]12OC(C)=O
    i | 0.99
CO[C@@H]1C[C@@H](C[C@H]2CC[C@H](C)[C@H]([C@@H](C)C(=O)O)O2)O[C@]2(O[C@](C)([C@H]3CC[C@@](C)([C@@H]4O[C@@H]([C@H]5O[C@@](O)(CO)[C@H](C)C[C@@H]5C)C[C@@H]4C)O3)C[C@H]2C)[C@@H]1C
    i | -0.75
Cc1cccc(Cc2cnc[nH]2)c1C
    i | -0.44
CC(C)NCC(O)c1ccc(N)c(C#N)c1 (stereo not drawn)
    i | 0.4&-0.74
Cc1ccc(C2(O)CN3CCC2CC3)cc1 (stereo not drawn)
    i | -0.7
Cc1[nH]c2ccc(Cl)cc2c1C1=CCNCC1
    i | 0.49
C/C1=C/C(=O)O[C@@H]2C[C@@H](CC[C@H](C)/C=C\CC1)O[C@@](O)([C@@H]1CSC(=O)N1)C2
    i | 0.31
COc1cc2c(cc1O)C(CCc1ccc(Cl)cc1)N(C)CC2 (stereo not drawn)
    i | -0.42
COc1ccc(C2c3cccn3-c3ccccc3CN2C(=O)CCC(=O)NC2CCCCC2)cc1 (stereo not drawn)
    i | 0.03
CCCN(CCC)[C@@H]1CCc2ccc(O)cc2C1
    i | 0.25
COc1ccc2c(c1)C1(CCN(C(=O)C3CCC3)C1)C(=O)N2 (stereo not drawn)
    i | -0.27
O=C(CN1C(=O)CN=C(c2ccccc2)c2ccccc21)NCCC1=CCCCC1
    i | 1.1
C[C@H]1CN(C2CCC(C#N)(c3ccc(F)cc3)CC2)CC[C@@]1(C(=O)O)c1ccccc1 (stereo partly drawn)
    i | 0.82
CNCCc1c[nH]c2ccc(O)cc12
    i | 0.69
Cc1[nH]c2ccc(O)cc2c1CCN
    i | 0.78&0.64
CC(C)(O)[C@@H]1[C@H]2OC(=O)[C@@H]1[C@]1(O)C[C@H]3O[C@]34C(=O)O[C@H]2[C@]14C (tested in a mixture with another compound)
    i | 0.11
Cc1ccc(OCC(=O)N2CCN(Cc3cc(=O)n4nc(-c5ccccc5)sc4n3)CC2)cc1
    i | 0.09
C#CCOc1ccc2c(c1)c(C(=O)OCC)c(C)n2CCCC
    i | -0.29
Cc1nnc(NC(=O)c2cccn(Cc3ccc(Cl)cc3)c2=O)s1
    i | 0.85
COc1ccc2c(c1)C1(CCN(S(=O)(=O)c3ccc4c(c3)oc(=O)n4C)C1)C(=O)N2C (stereo not drawn)
    i | 0.39
CCCC12CN3CC(C)(CN(C1)C3c1c(C)[nH]c(=O)[nH]c1=O)C2=O (stereo not drawn)
    i | 1.3
CCC1(CC)C(=O)C=CNC1=O
    i | 0.38

(listing goes on)
Compound | Choline anaer gr | Choline anaer gr early
CCOC(=O)Cc1ccc(NC(=O)N2Cc3ccccc3-n3cccc3C2CC)cc1 (stereo not drawn) | i | 1.2
C[N+]1(C)CCOC(O)(c2ccc(-c3ccc(C4(O)C[N+](C)(C)CCO4)cc3)cc2)C1 (stereo not drawn) | i | -0.38&0.81
CC(C)C1c2cccn2-c2ccccc2CN1C(=O)Nc1ccccc1Br (stereo not drawn) | i | -0.5
C=C(C)[C@H]1Cc2c(ccc3c2O[C@@H]2COc4cc(OC)c(OC)cc4[C@@H]2C3=O)O1 | i | 0.12
N[C@@H](Cc1ccc(N(CCCl)CCCl)cc1)C(=O)O | i | 0.33
NCC(O)c1ccc(O)cc1 (stereo not drawn) | i | 0.26&0.57&0.54&0.25
Clc1ccc(C2=CCCC3CCC2N3)cn1 (stereo not drawn) | i | 0.4
CC[C@]1(O)CCC2C3CCC4=CCCCC4C3CC[C@@]21C (stereo partly drawn) | i | -0.25
C[C@]12CCC(=O)C=C1CC[C@@H]1[C@@H]2C(=O)C[C@]2(C)C(=O)CC[C@@H]12 | i | 0.59
CNc1nc(N2CCN(C)CC2)c2cnn(C)c2n1 | i | -0.52
CC(O)(CS(=O)(=O)c1ccc(F)cc1)C(=O)Nc1ccc(C#N)c(C(F)(F)F)c1 (stereo not drawn) | i | 0.1&0&0.59&0.67
CC(C)CC(N(C)C)C1(c2ccc(Cl)cc2)CCC1 (stereo not drawn) | i | 0.44&0.11
Cc1c(C(=O)c2cccc3ccccc23)c2cccc3c2n1[C@H](CN1CCOCC1)CO3 | i | 0.51
COc1ccc(C(=O)O[C@H]2CC[C@@]3(C)[C@@H]4CC[C@H]5[C@]6(O)C[C@H](O)[C@@]7(O)[C@@H](CN8C[C@@H](C)CC[C@H]8[C@@]7(C)O)[C@]6(O)C[C@@]53O[C@]24O)cc1OC | i | 0.56
O=C1CC(c2ccccc2)c2cnn(-c3nc4ccccc4s3)c2N1 (stereo not drawn) | i | 1.3
COC(=O)CN1C(=O)CN=C(c2ccccc2Cl)c2cc(Br)ccc21 | i | -0.71
O=C(NCCCN1CCCC1=O)c1cc2cccnc2n(Cc2ccccc2)c1=O | i | 0.55
O=C(N/N=C/c1ccc([N+](=O)[O-])o1)c1cc([N+](=O)[O-])cc([N+](=O)[O-])c1O | i | -0.34
CC(=O)N1N=C2C3CCN(CC3)[C@@H]2[C@@H]1c1ccc(C)cc1 | i | 1.2
Cn1cc(C(=O)C(=O)N[C@H]2CN3CCC2CC3)c2ccccc21 | i | -0.19
C=C/C=C\CC1=C[C@@H](OC(=O)[C@@H]2[C@@H](C=C(C)C)C2(C)C)CC1=O | i | -0.27
CCOc1ccc(NC(=O)N2Cc3c(C)cc(C)nc3-n3cccc3C2c2ccc(F)cc2)cc1 (stereo not drawn) | i | 0.19
Fc1ccc(C(OCCN2CCN(CCCc3ccccc3)CC2)c2ccc(F)cc2)cc1 | i | 0.37&-0.11&0.91
CCN(CC)CC(O)c1c[nH]c2ccccc12 (stereo not drawn) | i | -0.73

Grouped by structure, the entries above containing four or more nitrogen atoms (12)
Compound | Choline anaer gr | Choline anaer gr early
CN1C[C@@H](NS(=O)(=O)N(C)C)C[C@@H]2c3cccc4c3c(cn4C)C[C@H]21 | i | 1.1
Cc1nc2nc(-c3ccc(C(C)(C)C)cc3)nn2c(C)c1CC(=O)N1CCN(C)CC1 | i | -0.16
Cn1c(=O)n(C)c2cc(CNCCc3c[nH]c4ccccc34)ccc21 | i | -1.2
O=C(NCc1cccnc1)c1cc2cccnc2n(Cc2ccccc2)c1=O | i | 0.6
Cc1ccc(OCC(=O)N2CCN(Cc3cc(=O)n4nc(-c5ccccc5)sc4n3)CC2)cc1 | i | 0.09
Cc1nnc(NC(=O)c2cccn(Cc3ccc(Cl)cc3)c2=O)s1 | i | 0.85
CCCC12CN3CC(C)(CN(C1)C3c1c(C)[nH]c(=O)[nH]c1=O)C2=O (stereo not drawn) | i | 1.3
CNc1nc(N2CCN(C)CC2)c2cnn(C)c2n1 | i | -0.52
O=C1CC(c2ccccc2)c2cnn(-c3nc4ccccc4s3)c2N1 (stereo not drawn) | i | 1.3
O=C(NCCCN1CCCC1=O)c1cc2cccnc2n(Cc2ccccc2)c1=O | i | 0.55
O=C(N/N=C/c1ccc([N+](=O)[O-])o1)c1cc([N+](=O)[O-])cc([N+](=O)[O-])c1O | i | -0.34
CCOc1ccc(NC(=O)N2Cc3c(C)cc(C)nc3-n3cccc3C2c2ccc(F)cc2)cc1 (stereo not drawn) | i | 0.19
